# Assay outcomes from PubChem.
# GIRK2 activ = activators of human GIRK2 potassium channels; P48051; AID 1259325; calls only for hits at 25 µM; HEK293-GIRK2 thallium flux, Thallos fluorescence; 63,000 compounds, 0.05% hits;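 active means among the strongest 0.2% of first-round signals and kept after retests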;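 further: first round at about 10 µM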
# Target sequence (P48051 whole entry, looked up): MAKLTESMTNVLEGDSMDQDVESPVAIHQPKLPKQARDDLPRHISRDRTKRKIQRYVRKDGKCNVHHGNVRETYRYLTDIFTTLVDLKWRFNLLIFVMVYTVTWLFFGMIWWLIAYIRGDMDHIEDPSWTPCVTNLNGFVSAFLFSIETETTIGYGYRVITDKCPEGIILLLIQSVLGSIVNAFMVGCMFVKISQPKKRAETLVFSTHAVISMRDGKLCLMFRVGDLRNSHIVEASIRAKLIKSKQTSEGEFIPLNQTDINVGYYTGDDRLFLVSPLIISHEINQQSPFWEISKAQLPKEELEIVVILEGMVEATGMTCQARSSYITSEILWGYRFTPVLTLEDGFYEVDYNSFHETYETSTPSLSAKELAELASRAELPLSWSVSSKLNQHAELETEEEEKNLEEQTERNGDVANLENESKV
# Calls only; i = inactive. An excerpt; rates above refer to the full screens.
SMILES,GIRK2 activ
COc1cccc(-c2ccc(=O)n(CCCC(=O)NC3CCCCCC3)n2)c1,i
CC(=O)c1ccc(S(=O)(=O)NCC#CCOc2ccc3c(c2)OCO3)cc1,i
CN(C(=O)Cn1c(C2CC(=O)N(Cc3ccccc3)C2)nc2ccccc21)c1ccccc1 (stereo not given),i
COc1ccc(NC(=O)CSc2nc3sc(C)cc3c(=O)n2C)cc1,i
Cc1ccc(N(C(=O)c2c(F)cccc2Cl)C(=O)N2CCCCC2)cc1,i
CCn1c(SCc2nc(-c3ccccc3)no2)nc2cc3c(cc2c1=O)OCO3,i
CS(=O)(=O)NCC1CCC(C(=O)Nc2cccc3nsnc23)CC1 (stereo not given),i
Cc1nc2ccccc2n1CC1CCN(CC#N)CC1,i
CCc1cccc(C)c1NC(=O)COc1cc(C)nc(N2CCc3ccccc3C2)n1,i
CC(C)c1ccc(NC(=O)C(=O)NCC(c2cccn2C)N2CCCC2)cc1 (stereo not given),i
COCCn1nnn(-c2ccc(NC(=O)CSc3ccc(F)cc3)cc2)c1=O,i
O=C(CN1CCN(c2ccc3c(c2)OCO3)C1=O)N1CCN(c2cccc(Cl)c2Cl)CC1,i
CCCNC(=O)Cn1c(=O)n(CC2CCC(C(=O)NCc3ccccc3)CC2)c(=O)c2sccc21 (stereo not given),i
CC(C)=CCCC(C)(O)C1Cc2cc(C(=O)O)cc(CC=C(C)C)c2O1 (stereo not given),i
Cc1noc(-c2cccn(CC(=O)NCCC3=CCCCC3)c2=O)n1,i
CC(O)(CNS(=O)(=O)CCc1ccccc1)c1ccc(-c2ccccc2)cc1 (stereo not given),i
COc1ccc(NC(=O)CSc2cc(-c3nc(C4CC4)no3)ccn2)cc1Cl,i
CC1C(=O)N2CCCc3cc(S(=O)(=O)Nc4ccccc4C(N)=O)cc1c32 (stereo not given),i
CCOc1ccc(-c2noc(CSc3nc4ccccc4c(=O)n3Cc3cccs3)n2)cc1,i
COc1cccc2cc(C(=O)Nc3ccc(-c4ccn[nH]4)cc3)oc12,i
CN(C)S(=O)(=O)N1CCN(c2ccc(Cl)cc2)CC1,i
COc1ccc(C(=O)NCCS(=O)(=O)N2CCc3ccccc3C2)c(OC)c1,i
Cc1cc(OCC(=O)NCc2ccco2)nc(N2CCC(C)CC2)n1,i
COc1ccc([N+](=O)[O-])cc1NC(=O)Cc1cccc2ccccc12,i
COc1ccc(S(=O)(=O)N2CCCOC2CNC(=O)C(=O)NCCc2ccccc2)cc1 (stereo not given),i
COc1ccc(OC)c(C(=O)CSc2nccn(-c3ccc(C)c(C)c3)c2=O)c1,i
COc1cc(-c2noc(C3CCN(S(=O)(=O)c4ccc(C)c(C)c4)CC3)n2)cc(OC)c1OC,i
CCOc1cc(S(=O)(=O)NCc2ccccn2)ccc1Cl,i
COc1ccccc1CNC(=O)c1c(O)c2cccnc2[nH]c1=O,i
CCOC(=O)c1cccc(NC(=O)Cn2c(C)cc(C)c(S(=O)(=O)c3ccc(C)cc3)c2=O)c1,i
COCCOC(=O)c1c(C)oc2ccc(OS(C)(=O)=O)cc12,i
CSc1ccc(/C=C2\C=C(CC(=O)NCc3ccc(C)cc3)c3cc(F)ccc32)cc1,i
CCc1nccn1CC1CCN(C(=O)COc2ccc(F)cc2)CC1,i
O=C(NCc1nc2ccccc2[nH]1)c1cc([N+](=O)[O-])cc([N+](=O)[O-])c1,i
COc1ccc(-c2c(C)oc3cc(OCCN4CCC(C(N)=O)CC4)ccc3c2=O)cc1OC,i
COc1ccc2cc(-c3nc(-c4ccc(OC)c(F)c4)no3)c(=O)oc2c1,i
O=C(/C=C/c1ccco1)N(CCc1cccs1)Cc1ccoc1,i
COc1cccc(N2CC(C(=O)NCCc3nc(C4CC4)cc(C(F)(F)F)n3)CC2=O)c1 (stereo not given),i
O=C(Nc1ccc2c(c1)CCC(=O)N2Cc1ccccc1)NC1CCCCC1,i
CSc1cccc(Nc2c(C(=O)N3CCSCC3)cnc3nc(C)ccc23)c1,i
Cc1nc2cc(NC(=O)c3nnn(-c4nccs4)c3C)ccc2s1,i
COCCOC(=O)c1c(C)n(C)c2ccc(OC(=O)c3c(OC)cccc3OC)cc12,i
CCOC(=O)Cc1csc(NC(=O)c2cc3n(n2)CCCO3)n1,i
COCCCn1c(SCC(=O)Nc2ncn[nH]2)nc2cc3c(cc2c1=O)OCO3,i
CN(CC(O)=C(C#N)c1nc(-c2ccc(Cl)cc2)cs1)C1CCCCC1,i
COc1ccc(I)cc1S(=O)(=O)NCc1ccccn1,i
CSc1ccc(CNC(=O)C2CCCN(c3ncnc4c3oc3ccccc34)C2)cc1 (stereo not given),i
Cc1ccc(=O)n(CC(=O)N2CCC(Cc3ccccc3)CC2)n1,i
CC(C)(C)OC(=O)N1CCN(CCNS(=O)(=O)Cc2cccc(F)c2)CC1,i
O=C(NCCN1CCOCC1)c1cccnc1-c1nc2ccccc2s1,i

# (cont.)
SMILES,GIRK2 activ
O=C(COc1ccc([N+](=O)[O-])cc1)Nc1ccc(S(=O)(=O)N2CCOCC2)cc1,i
COc1nn(C)cc1C(=O)NCCc1cc(C)no1,i
CON(C)C(=O)CN(C)c1nc2c(C(F)(F)F)cccc2s1,i
COc1ccc(-n2nncc2CN2CCN(C(=O)c3cccs3)CC2)cc1F,i
CCOCCSc1nnc(C)c2cnn(-c3ccc(C)c(C)c3)c12,i
CCOCCn1c(-n2nc(C)cc2C)nc2c1c(=O)[nH]c(=O)n2C,i
CC(=O)CC1(O)C(=O)N(CCOc2ccc3ccccc3c2)c2ccc(Cl)cc21 (stereo not given),i
Cn1cccc1CN(Cc1cccs1)C(=O)Nc1ccccc1Cl,i
O=C(CSCc1ccccc1)N1CCN(Cc2nc(-c3ccc(F)cc3)cs2)CC1,i
COc1cc(C(=O)Nc2ccccc2O)cc(OC)c1OC,i
O=S(=O)(c1cccn2cnnc12)N(Cc1cccc(F)c1)c1cccc(Cl)c1,i
COc1ccc(CC(C)(O)CNC(=O)COc2ccccc2C)cc1 (stereo not given),i
O=C(c1ccc([N+](=O)[O-])o1)N1CCN(C(=O)C2CC2c2ccccc2)CC1 (stereo not given),i
COc1ccc(-n2nnc(C(=O)NCC3CCCCC3)n2)cc1,i
Cc1cc(C)cc(-n2c(C)nc3c(c(=O)c4ccccc4n3C)c2=O)c1,i
CCOc1ccc(OCCNS(=O)(=O)c2cc(C)ccc2OC)cc1,i
O=C(c1cc2n(n1)CCCO2)N(CCO)c1ccccc1,i
O=c1ccc(-n2ccnc2)nn1CCNS(=O)(=O)c1ccccc1Cl,i
CC(CO)(CO)NC(=O)c1nnn(-c2ccc(C(F)(F)F)cc2)n1,i
CC1(c2ccccc2)NC(=O)NC1=O (stereo not given),i
Cc1nnsc1C(=O)NCCCOc1cccc2cccnc12,i
Cc1ccc(S(=O)(=O)c2cn(C)c3cc(N4CCCCC4)c(F)cc3c2=O)cc1,i
NC(=O)c1ccccc1NC(=O)Cn1ncccc1=O,i
Nc1nc(-c2ccccn2)c(-c2ccc3ncccc3n2)s1,i
CN(C)CCCN1C(=O)C(=O)C(=C(O)c2ccncc2)C1c1ccco1 (stereo not given),i
O=C(Nc1cc(-n2ccc3ccccc32)ncn1)C1COc2ccccc2O1 (stereo not given),i
COc1ccc(NC(=O)Cn2nc3c(Sc4ccccc4)nccn3c2=O)cc1,i
COc1cccc2cc(C(=O)NCCOC34CC5CC(CC(C5)C3)C4)c(=O)oc12,i
COc1cccc(C2C(=C(O)c3c(C)nc4ccccn34)C(=O)C(=O)N2CCCN(C)C)c1 (stereo not given),i
COc1ccccc1NC(=O)Nc1ccc2c(c1)CCCN2S(=O)(=O)c1ccccc1,i
NC(N)=Nc1cccc(Cl)c1,i
C=C[C@@](C)(O)CC/C=C(\C)C(=O)O[C@@H]1[C@@H]2O[C@]2(C)[C@H]2[C@H](O[C@@H]3O[C@H](CO)[C@@H](O)[C@H](O)[C@H]3O)OC=C[C@@]12O,i
O=c1[nH]c2nc(NCCc3ccccn3)ncc2c(=O)n1-c1ccccc1F,i
Cc1noc(C)c1Cn1cccc1-c1nc(-c2ccc3c(c2)OCO3)no1,i
Cc1ccc(-n2cc(C(=O)N3CCC(NC(=O)c4ccncc4)CC3)nn2)cc1C,i
CCOc1ccc2nc(NC(=O)C(C)n3nc(-c4ccc(C)cc4)ccc3=O)sc2c1 (stereo not given),i
COc1ccc(/C=C/C(=O)c2c(O)cc(C)oc2=O)cc1,i
CCCc1nnc(NC(=O)c2c(C)cc(C)cc2C)s1,i
CC(Cn1nc(-c2ccco2)ccc1=O)C(=O)NCCc1csc(-c2ccccc2)n1 (stereo not given),i
O=C(NCCc1ccccc1)N1CCC2(CC1)OCCCO2,i
O=C(NCCC1CCCCN1S(=O)(=O)c1cccs1)c1ccc2nsnc2c1 (stereo not given),i
COc1ccc(S(=O)(=O)N2CCCOC2CNC(=O)C(=O)NCc2ccccc2C)cc1OC (stereo not given),i
Cc1ccc(-c2ccc3nnc(CCC(=O)NCc4ccccc4C(F)(F)F)n3n2)cc1,i
COc1cc2c(cc1OC)CN(C(=O)c1ccc3nsnc3c1)CC2,i
O=C(CCn1cnc2ccccc2c1=O)N1CCN(Cc2csc(-c3ccccc3)n2)CC1,i
CC(=O)N1CCN(S(=O)(=O)c2cccc(C(=O)Nc3cccnc3)c2)CC1,i
COc1ccc(NC(=O)CSc2cc(C)nc(-c3cccnc3)n2)cc1OC,i
CN(C)S(=O)(=O)Oc1ccccc1[N+](=O)[O-],i
O=c1c(Oc2ccc(F)cc2F)cc2cnc(NC3CCOCC3)nc2n1CCCO,i
Nc1nc(NCCc2c[nH]c3ccccc23)ncc1[N+](=O)[O-],i

# Further records follow.
SMILES,GIRK2 activ
C=CCN1C(=O)C2(SC(NC(C)=O)=NN2C(C)=O)c2cc(Br)ccc21 (stereo not given),i
COc1ccc(SCCCC(=O)Nc2cc(C)on2)cc1,i
CCC(C)n1c(C)c(C)n2c3c(=O)n(C(C)C(C)=O)c(=O)n(C)c3nc12 (stereo not given),i
Cc1c(C)n2c3c(=O)n(CCN4CCOCC4)c(=O)n(C)c3nc2n1-c1ccc(Cl)cc1,i
O=C(Nc1nc2c(s1)COCC2)c1ccccc1Cl,i
CCOc1cccc(CNc2c(C(=O)OC)c(=O)[nH]c3ccc(Cl)cc23)c1,i
O=C(CCCn1c(=S)[nH]c2cc3c(cc2c1=O)OCO3)N1CCN(C2CCCCC2)CC1,i
COc1ccc(N2CCN(C(=O)CCCc3nnc4n(Cc5ccccc5)c(=O)c5ccccc5n34)CC2)cc1,i
COc1ccc(Cl)cc1NC(=O)CN1CCN(S(=O)(=O)c2ccc(C)cc2)CC1,i
Nc1sc2c(c1-c1nc3ccccc3s1)CCN(Cc1ccccc1)C2,i
Cc1ccc(CNC(=O)Cn2c(C)cc(C)c(-c3nc(-c4ccccc4)no3)c2=O)cc1,i
O=C(Cn1nc(-c2cccs2)c2sc(N3CCOCC3)nc2c1=O)NCCc1ccccc1,i
NC(=O)Cc1ccc(NS(=O)(=O)/C=C/c2ccccc2)cc1,i
O=C(Nc1nnc(-c2cccc(F)c2)o1)c1cc(-c2ccco2)on1,i
COc1ccc(-n2nnc3c(N4CCN(C(=O)c5ccc(OC(C)C)cc5)CC4)ncnc32)cc1,i
O=C(NCc1ccco1)c1ccc(=O)n(Cc2cccc(F)c2)n1,i
Cc1c(Cl)cccc1N1CCn2c1nc1c2c(=O)n(CC(=O)O)c(=O)n1C,i
COc1ccccc1C(=O)NCCN1CCN(c2ccccc2OC)CC1,i
CC(=O)c1cccc(NC(=O)CN2CCC(c3nc(-c4ccc(F)cc4)no3)CC2)c1,i
Cc1ccc2c(c1)cc(S(=O)(=O)c1ccccc1)c(=O)n2CC(=O)NC1CCCC1,i
Cc1ccc(CNC(=O)c2ccc(Oc3nccnc3N3CCSCC3)cc2)cc1,i
COC(=O)c1ccccc1CC1SC(N)=NC1=O (stereo not given),i
CCCCN1CC(c2nc3ccccc3n2CC(=O)N(c2ccccc2)C(C)C)CC1=O (stereo not given),i
COc1cccc2cc(C(=O)N3CC(c4nc(C5CC5)no4)C3)oc12,i
COCCNC(=O)Cc1ccc(NC(=O)NC23CC4CC(CC(C4)C2)C3)cc1,i
CCCCOc1ccc(NC(=O)Nc2ccc(Cl)c(N3CCCS3(=O)=O)c2)cc1,i
COc1ccc2nc(-n3nc(C)cc3NC(=O)c3ccc(N(C)C)cc3)sc2c1,i
C=CCn1c(=S)[nH]c2cc(C(=O)N3CCOCC3)ccc2c1=O,i
COc1ccc(-c2cn[nH]c2-c2ccc(OCCN3CCC(C(N)=O)CC3)cc2O)cc1OC,i
O=S(=O)(c1ccc(Br)s1)N1CCC2(CC1)OCCS2,i
COc1ccc(CCC(=O)NNC(=O)c2ccc(=O)n(Cc3ccc(Cl)cc3)c2)cc1,i
O=C(NCc1cccc2ccccc12)N(Cc1ccoc1)Cc1cccs1,i
CCOCC(=O)NCCCn1ccnc1-c1ccccc1,i
